AID504770 – growth inhibitors of E. coli YBA685 in a screen for V. cholerae RctB (chromosome II replication) inhibitors | 0.27% of 130,000 active | z-score (test concentration not listed) | E. coli YBA685 rctB-dependent plasmid, OD600 growth, 3 h; hits give low values;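 active = z-score under -2 on both plates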;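 also: wells of about 30 µL received 100 nL stock; score is relative to mean and SD of the test wells; the first replicate is given; strong numbers were not always called active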
Ba CapD inh – inhibitors of Bacillus anthracis CapD enzyme; purified CapD enzyme, fluorescence intensity read-out; hits give low values; some hits fall short of the stated cut; z-score (concentration not given with the values); 0.23% of 140,000 active;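 active = z-score under -4 in either of two replicates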;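 also: stock transfer was 100 nL into about 40 µL; score is relative to mean and spread of the plate; one replicate is shown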
The depositor's hits bear a star; / = no result given. No enrichment for hits, and some 0.37% of all compounds hit somewhere here.

Order of values: AID504770	Ba CapD inh
Cc1ccccc1Nc1nnc(-c2ccc(C(=O)NCCO)cc2)c2ccccc12
    0.4	-0.21
C/C(CC(=O)C(F)(F)F)=N\NC(=O)/C(C#N)=N/Nc1ccccc1[N+](=O)[O-]
    /	-1.2
CCc1nc(N=C(N)N)nc2ccc(C)cc12
    -0.25	/
O=C1c2ccc(F)cc2C(=O)N1N1CCOCC1
    -0.55	0.41
O=[N+]([O-])c1ccc(-c2nc(-c3cccc([N+](=O)[O-])c3)no2)cc1
    /	0.42
Fc1ccc(-n2cc(-c3ccccc3)c3c(NCc4ccccc4)ncnc32)cc1
    0.3	-0.25
O=C(Nc1ccc(Cl)cc1)c1sccc1SCc1ccc(Cl)cc1
    /	-0.59
CCc1ccc(NC(=O)C(C)Nc2ccc3c(c2)OCCO3)cc1 (stereo not drawn)
    -1.1	/
Cc1cc(-n2c(C)cc(C(=O)CSc3ncnc4ccccc34)c2C)no1
    0	/
COc1cc(C2N(Cc3ccccc3)CCN2Cc2ccccc2)cc(OC)c1OC
    /	0.34
Cc1cc(N2C(=O)CS/C2=C(/C#N)C(=O)NC2CCCCC2)ccc1Cl
    0	/
COc1ccc(NC(=O)Cn2cnc3c(nnn3Cc3ccccc3F)c2=O)cc1OC
    2	-0.99
CCn1c(SCc2cccc3ccccc23)nnc1-c1ccco1
    2.2	/
CCOC(=O)c1c(C)oc2ccc(OC(=O)COc3c(F)c(F)c(F)c(F)c3F)cc12
    /	0.29
Cc1cccc(C)c1NC(=O)CN1c2ccccc2CC1C (stereo not drawn)
    -0.3	/
CC(C)NC(=O)CSc1nc(-c2ccccc2)cc(=O)[nH]1
    0.2	0.01
COc1ccc(OC)c(NC(=O)Cn2c(=O)oc3cc(Cl)ccc32)c1
    -0.65	-0.54
Cc1ccc(C(=O)COC(=O)CC2CC3CCC2C3)cc1 (stereo not drawn)
    1.1	-0.44
N#Cc1c(Cl)cccc1-n1ccnc1
    -0.5	1.2
COc1ccc(CNc2ccc3[nH]c(=O)[nH]c3c2)cc1OC
    -0.25	3.9
CN1/C(=C\C(=O)CSc2nncs2)C(C)(C)c2ccccc21
    0.1	/
Brc1cccc(C=NCc2ccccc2)c1
    /	-0.55
O=C(CSc1ncnc2c1nnn2Cc1ccc(F)cc1)OCc1ccccc1
    -0.45	62
Fc1ccc(-c2nc3cc4ccccc4cc3nc2-c2ccc(F)cc2)cc1
    /	1
COc1cc(C2NC(=O)C(C#N)=C(Nc3cccc(C)c3)S2)ccc1O (stereo not drawn)
    -0.05	-0.09
OCCNc1ncnc2ccc(Br)cc12
    -0.65	/
N#CC1=C(SCC(=O)Nc2ccc(Br)cc2)NC(=O)CC1c1ccc2c(c1)OCO2 (stereo not drawn)
    /	-0.26
CC1C(=O)CC(c2ccccc2)N(C)C1c1ccccc1 (stereo not drawn)
    0.5	0.39
O=C(O)c1cc(-c2ccc(Cl)cc2)cc2ccccc12
    0.15	3
CCN=c1scc(-c2ccc(C)cc2)n1/N=C(\C)c1ccc(C)o1
    1.2	/
COc1cc(NC(C)=O)c(C(=O)c2nccc3cc(OC)c(OC)cc23)cc1OC
    0.75	/
Cc1ccc(C(=O)N/C(N)=N/c2nc3ccccc3o2)cc1
    1.1	-0.78
COc1ccc(CCNC(=O)c2cc(S(=O)(=O)N3CCC4(CC3)OCCO4)ccc2F)cc1OC
    /	-0.01
CCOC(=O)CN1CC23C=CC(O2)C(C(=O)Nc2cccc(F)c2)C3C1=O (stereo not drawn)
    -0.6	-0.08
CCCc1noc2c1/C(=N\O)CC(CC(C)SCC)C2 (stereo not drawn)
    1.4	-0.36
CC1=NN(c2nc3ccccc3s2)C(=O)C1
    -0.45	0.34
CC(C)(C)NC(=O)c1cccc2ccccc12
    1.7	0.04
CCc1cccc(NC(=O)Cn2c(C(=O)OC)cc3oc4ccccc4c32)c1
    -1.1	2.6
O=C1CCCC2=C1C(c1cn[nH]c1-c1ccc(F)cc1)Nc1ccc3ccccc3c12 (stereo not drawn)
    /	63
CC1COc2c(F)c(F)cc3c(=O)c(C(=O)O)cn1c23 (stereo not drawn)
    -0.75	1.3

Full records, quoted from the list. Order of values: AID504770	Ba CapD inh
`O=C(CSc1ncnc2c1nnn2Cc1ccc(F)cc1)OCc1ccccc1` is listed as -0.45	62
`O=C(O)c1cc(-c2ccc(Cl)cc2)cc2ccccc12` is listed as 0.15	3
`CCCc1noc2c1/C(=N\O)CC(CC(C)SCC)C2` (stereo not drawn) is listed as 1.4	-0.36

Rewritten bar-delimited: part of the list above
Structure | AID504770 | Ba CapD inh
N#Cc1c(Cl)cccc1-n1ccnc1 | -0.5 | 1.2
COc1ccc(CNc2ccc3[nH]c(=O)[nH]c3c2)cc1OC | -0.25 | 3.9
CN1/C(=C\C(=O)CSc2nncs2)C(C)(C)c2ccccc21 | 0.1 | /

Next section:
Order of values: AID504770	Ba CapD inh
COc1ccccc1-n1c(CNC(=O)c2ccc(S(=O)(=O)N(C)C)cc2)nnc1SCC(=O)Nc1cccc(C)c1
    /	-0.58
NS(=O)(=O)c1ccc(CCn2c(-c3ccc(Cl)s3)csc2=Nc2ccc(OC(F)(F)F)cc2)cc1
    /	-0.28
Cc1nc2sc(C(=O)NC3CCC(C)CC3)c(C)c2c(=O)[nH]1 (stereo not drawn)
    -0.2	/
N#CC1=C(SCC(N)=O)NC2=C(C(=O)CCC2)C1c1ccccc1Cl (stereo not drawn)
    -1.5	9.6
C=CCNC(=O)C1CC(=O)N(c2ccc(F)c(Cl)c2)C1 (stereo not drawn)
    -0.6	0.24
O=C(Cn1c(Cc2ccccc2)nc2sc3c(c2c1=O)CCCC3)Nc1ccccc1Cl
    /	0.18
CCCCn1c(C(O)c2ccccc2)nc2ccccc21 (stereo not drawn)
    0.35	-0.78
COc1ccc(/C=C2\SC(=S)N(CC(=O)Nc3ncc(Cc4cccc([N+](=O)[O-])c4)s3)C2=O)cc1OC
    /	-0.38
COc1cc2c(cc1OC)C(C)N(C(=O)c1ccco1)CC2 (stereo not drawn)
    0.25	0.9
Cc1ccccc1NC(=S)Nc1ccccc1C(=O)Nc1ccc(F)cc1
    -0.7	8
CS(=O)(=O)c1cnc(-c2ccncc2)nc1-c1ccc(C(F)(F)F)cc1
    /	-0.12
c1cc2cn[nH]c2cc1NC1CCCCCC1
    2	32
CCn1c(SCC(=O)Nc2ccc3[nH]c(=O)[nH]c3c2)nnc1-c1cccs1
    1.2	/
COc1ccc(-c2onc(C)c2C)cc1S(=O)(=O)NCC1CCN(Cc2ccc(F)cc2)CC1
    -0.7	-1
CCc1ccc(/C=C2/C(=O)N(c3ccc(C)c(C)c3)C(=S)N2C)s1
    -0.2	-1.2
CN(C)C(=O)C(Cc1ccccc1)N1C(=O)C2C3C=CC(C3)C2C1=O (stereo not drawn)
    -0.7	8.7
CC(Sc1nc2ncccc2o1)C(=O)N1CCCc2ccccc21 (stereo not drawn)
    -0.55	-0.46
COc1ccc2c(c1OC)C(=O)OC2CC(=O)O (stereo not drawn)
    2.1	5.4
N#Cc1ccc(C(=O)N2CCCSC2=NCc2ccccc2)cc1
    0.4	/
Cc1ccc(-n2nc(C(=O)NCCc3ccc(Cl)cc3)c3c4ccccc4n(C)c3c2=O)cc1
    0.25	0.84
CN(c1ccc(O)cc1)c1nc(S(=O)(=O)c2ccccc2)c(Cl)s1
    -1.2	/
COc1ccccc1C1CCN(C(=O)C2CC2C(=O)O)CC1 (stereo not drawn)
    /	-0.99
CCOc1cccc(C(=O)NNC(=O)OCC(C)c2ccccc2)c1 (stereo not drawn)
    /	0.58
CC12CCC(C(=O)Nc3cccnc3)(OC1=O)C2(C)C (stereo not drawn)
    0.2	-0.46
O=C(OCC(=O)N1CCCC1)c1ccccc1Cc1ccccc1
    0.15	-0.21
O=C(O)c1cccn2c(=O)c3ccccc3nc12
    -0.45	/
C/C(=N\NC(=O)c1ccc(Cl)cc1)c1ccc(-n2ccnc2)cc1
    -0.1	/
Cn1c(=O)[nH]c(=O)c2[nH]c(N(CCO)CCO)nc21
    1.4	/
O=C(Nc1ccc(N2CCCC2)cc1)c1ccccc1Cl
    0.2	-0.26
Clc1cccc(-c2cnco2)c1
    /	0.64
NC(=O)C1CCN(CC(O)COc2ccc(Cl)c(Cl)c2)CC1 (stereo not drawn)
    0.65	0.33
Oc1c(Cl)cc(Cl)cc1/C=N/c1ccnn1-c1ccccc1
    -0.85	-0.41
COCCNc1nc(SC)nc(-c2ccccc2)c1C#N
    -1.5	1.6
COc1ccc(CCNC(=O)CSc2nc3[nH]ncc3c(=O)n2-c2cccc(C(F)(F)F)c2)cc1OC
    /	-0.09
Nc1nc2ccccc2n1C(=O)CCc1ccccc1
    1.4	-0.075
CCc1ccc2c(c1)=C(c1sc(Nc3cccc(Cl)c3C)nc1O)C(=O)N=2
    -0.3	-0.56
CCN(CC)C(=O)c1ccc2ccccc2n1
    -1.1	0.92
COc1cccc(NC(=O)c2cccc3c2OCCCO3)c1
    -0.5	0.12
CCCc1nnc2n1Nc1nc3ccccc3nc1S2
    -0.75	0.77
Cn1ccc(N2C(=O)c3ccccc3C2=O)n1
    -0.65	-0.03
COc1ccc(C(=O)N/C=C/n2cnc3cc(C(F)(F)F)ccc32)cc1
    1.3	0.2
CCC1CCC(=O)C(C2(O)C(=O)Nc3ccccc32)C1 (stereo not drawn)
    /	0.085
COc1ccc(Nc2nnc(C)c3ccccc23)cc1
    -1.1	-2.3
CCC(=O)N1c2cc(C)c(C)cc2C(=C2SC(C(=O)OC)=C(C(=O)OC)S2)C(=S)C1(C)C
    /	0.68
CC1=C(C(=O)Nc2ccccc2)C(c2ccco2)C(C#N)=C(SCC(=O)Nc2ccccc2)N1 (stereo not drawn)
    -0.4	/
c1ccc(-c2nonc2NCNc2nonc2-c2ccccc2)cc1
    1.9	/
O=C(O)C/C(=C/c1ccc(-c2cccs2)s1)C(=O)O
    -0.55	37
Cn1nc(C(C)(C)C)c(NC(=O)c2cccs2)c1C(C)(C)C
    -1.4	0.85
N#CC1=C(O)c2ccccc2N(S(=O)(=O)c2ccc(Cl)cc2)CC1
    /	0.025
CCn1c2ccccc2c2cc(CN(CCOC(=O)N3CCN(Cc4ccc(N(C)C)cc4)CC3)C(=O)OC(C)(C)C)ccc21
    /	29
N#Cc1c(N)ncc2c1CCCC2
    -1.1	64
Cc1ccccc1NC(=O)c1sc2nc3c(c(-c4ccco4)c2c1N)CCC3
    /	-0.93
COc1ccc(C(=O)/C(C#N)=C/N2CCc3ccccc3C2)cc1
    0.2	-0.64
CCN(CCS(=O)(=O)c1ccc(Cl)cc1)Cc1nc2ccccc2c(=O)[nH]1
    0.3	/
CC(C)C(C(=O)NCc1ccccc1)N1Cc2ccccc2C1=O (stereo not drawn)
    2.5	-0.25
Cc1ccc(NC2=NC(C)(C)N=C(N)N2)cc1
    1.5	-0.15
N#CCCSc1nccn1Cc1ccccc1
    0	-0.4
O=C1CCC(=O)N1CNc1cc(C(F)(F)F)cc(C(F)(F)F)c1
    -0.75	0.73
COc1ccccc1C1C=C(c2cccnc2)Nc2nc3ccccc3n21 (stereo not drawn)
    -0.05	-0.81
COC(=O)C1C2C=CC3(CN(CC(C)C)C(=O)C13)O2 (stereo not drawn)
    -0.7	-0.4

Reformatted bar-delimited: 3 of the compounds above.
smiles | AID504770 | Ba CapD inh
Cc1ccc(NC2=NC(C)(C)N=C(N)N2)cc1 | 1.5 | -0.15
N#CCCSc1nccn1Cc1ccccc1 | 0 | -0.4
O=C1CCC(=O)N1CNc1cc(C(F)(F)F)cc(C(F)(F)F)c1 | -0.75 | 0.73

Remaining list, next part
Order of values: AID504770	Ba CapD inh
CC(Sc1ncc(C(F)(F)F)cc1Cl)c1ccn[nH]1 (stereo not drawn)
    0.65	0.045
Nc1cnn(-c2ccccc2)c(=O)c1N
    0.25	3.6
O=C(Cc1cccs1)N1CCN(c2ccccn2)CC1
    -0.25	15
CCOC(=O)c1c(NC(=O)C(C)Sc2nc3c(cnn3-c3ccc(F)cc3)c(=O)[nH]2)sc2c1CCC2 (stereo not drawn)
    -0.9	0.72
CCCCCOc1ccc(/C=c2\sc3nc(=O)c(C)nn3c2=O)cc1
    /	0.005
Cc1nnc(SCc2ccc(Cl)cc2Cl)o1
    -0.4	/
Cc1c(C#N)c2nc3ccccc3n2c(=O)/c1=C\Nn1cnnc1
    -0.65	-0.07
COCCn1c(C)cc(C(=O)COC(=O)c2ccccc2Br)c1C
    0.95	-0.14
Clc1cc2c(c3ncccc13)OCN(CC1CCCO1)C2 (stereo not drawn)
    1.4	/
Cc1cnc(N)c(C)n1
    -0.7	73
O=C(c1ccccc1)N1c2ccccc2N=C(c2ccc(I)cc2)CC1c1ccccc1 (stereo not drawn)
    /	-0.21
Cn1c(C(=O)NC2CC2)cc2c(=O)n(C)c3ccccc3c21
    -0.55	-0.93
NCCc1ccc2c(c1)OCO2
    -0.4	/
CCOC(=O)Cn1c(=O)oc2cc(S(=O)(=O)N(C)Cc3ccccc3)ccc21
    0	-0.94
